2A StopGo: lowers the luciferase signal of an FMDV 2A StopGo reporter; human cells with a luciferase reporter of 2A StopGo recoding; control for the full effect not named in the record; Potency, µM (highest dose often 57.9 µM), for the others: at the top dose signal change, negative = less light; 410,000 tested, 1.2% active; active = well fitted falling curve with a large enough effect; inconclusive = small, poorly fitted or top-dose-only effect; inactive = no such curve, though single readings can be large or run the other way; tested in HEK293T cells; further: nearly all actives have a fitted effect of over 45% in size; luciferase light after 4 h
RE007 growth inh: less growth of the S. pombe RE007 Vpr strain. S. pombe RE007 Vpr strain, BacTiter-Glo ATP luminescence, 24 h; control for the full effect not named in the record. Potency, µM (doses to about 92.2 µM), inactives show at the top dose activity change, negative = less growth. 360,000 tested, 0.21% active; active = well fitted falling curve with a large enough effect; inconclusive = small, poorly fitted or top-dose-only effect; inactive = no such curve, though single readings can be large or run the other way;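 further: nearly all actives have a fitted effect of over 50% in size; the assay follows cell death caused by Vpr and the record does not say whether a fall means rescue or toxicity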
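Fission yeast strain RE007, carrying one chromosomally integrated HIV-1 vpr copy, was seeded at OD 0.01 in PMG+AL medium with 23 nL pinned compound. After 24 h at 30 °C and 99% humidity, viability was read by BacTiter-Glo luminescence.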
An asterisk follows results filed as active; u = inconclusive; & = joins results of further samples; [ ] = another dose, or the depositor's remark. On the % scale 0 is the no-effect control and ±100 the full control effect; potency means the concentration at half of the fitted maximal effect. An excerpt; count on the stated rates, not on these rows.

canonical_smiles	2A StopGo	RE007 growth inh
CCN(CC)S(=O)(=O)c1ccc(N2CC(C(=O)Nc3cccc(C(=O)NC4CC4)c3)CC2=O)cc1 (stereo not given)	-16%	6%
CCC(c1nc2ccccc2[nH]1)n1c(=O)c(-c2ccco2)nc2ccccc21 (stereo not given)	-25%	-8%
CCOc1ccc(-c2cccc(NS(=O)(=O)c3cccc([N+](=O)[O-])c3)c2)nn1	58%[activator]	-1%
CCC(c1nc2ccccc2[nH]1)n1c(-c2ccnc(Cl)c2)nc2ccccc21 (stereo not given)	-18%	-9%
C[C@H]1CN([C@@H](C)CO)S(=O)(=O)c2ccc(Br)cc2O[C@H]1CN(C)C(=O)Cc1ccccc1	-13%	-9%
Cc1ccc(Sc2ccc(NC(=O)c3ccc(F)cc3)cc2C#N)cc1	-13%	9%
O=[N+]([O-])c1ccc(COP(=O)(O)OCc2ccc([N+](=O)[O-])cc2)cc1	-16%&-4%	20%&-8%
C[C@H](CO)N1C[C@H](C)[C@@H](CN(C)S(=O)(=O)c2cccs2)OCc2cnnn2CCCC1=O	-20%	9%
CN[C@@H](CO)C(=O)NC[C@H]1O[C@@H](n2cc(C)c(=O)[nH]c2=O)C[C@@H]1O	4%	-9%
CCCc1nc2ccc(C(=O)OC)cn2c1Cc1ccccc1	0%	u
C[C@@H]1CN([C@@H](C)CO)C(=O)CCCn2cc(nn2)CO[C@H]1CN(C)C(=O)Oc1ccc2ccccc2c1	-24%	19%
O=C(OCc1ccccc1)N1CCC2CC1c1cc(-c3cc4ccccc4o3)ccc12 (stereo not given)	-21%	9%
CCCCN(C=O)c1c(CC)nc2c(OCC(=O)C(C)(C)C)cccn12	-21%	-9%
CC1(C(=O)NS(=O)(=O)Cc2cccc(Cl)c2)CCN1C(=O)Cc1ccc(-c2ccccc2)cc1 (stereo not given)	-4%	9%
C[C@@H]1CN([C@@H](C)CO)S(=O)(=O)c2ccc(Br)cc2O[C@H]1CN(C)C(=O)c1ccncc1	-23%	11%
COc1cccc(C(NC(C)=O)c2nc(-c3ccccc3OC)cs2)c1 (stereo not given)	0%	1%
O=[N+]([O-])c1ccc(-c2cn(-c3ccc(Cl)cc3)cn2)cc1	40%[activator]	-7%
CN(C(=O)c1ccc(NC(=O)Cc2cccc(NC(=O)C3CCCN(S(=O)(=O)c4cccc([N+](=O)[O-])c4)C3)c2)cc1)C1CC1 (stereo not given)	10%	8%
COc1ccc([C@H]2/C=C\CN(C(=O)C3CCCC3)[C@@H](C)C(=O)N2Cc2ccc(F)cc2)cc1	-19%	-7%
c1ccc(NN(Cc2ccncc2)c2ccccc2)cc1	-29%	-12%
CCCCn1nnnc1C(c1ccccc1)N1CCN(c2ccc(OC)cc2)CC1 (stereo not given)	10%	0%
COc1cc(CNc2ncnc3c2ncn3[C@H]2CN(Cc3cc(OC)c(OC)c(OC)c3)C[C@@H](CO)O2)cc(OC)c1OC	-15%	14%
COc1ccc(CCCN2CCC(CN3C(=S)NC[C@@H]3Cc3ccccc3)CC2)cc1OC	-18%	-20%
COc1ccc(CNC(=O)OC2CC3CC2[C@H]2CCCCN2C3=O)cc1 (stereo not given in full)	0%	2%
CC1(C(=O)NS(=O)(=O)c2ccccc2)CCN1C(=O)Cc1ccc(Cl)cc1Cl (stereo not given)	-27%	3%
CCCCCCCCN1C(=O)[C@H](CC(=O)NCc2cccs2)C[C@@]2(C(=O)OCC)CCCC=C12	-6%	1%
COc1cc(C(=O)C(=O)N2CCC(Cc3ccccc3)CC2)cc2ccccc12	9%	-4%
O=S1(=O)CC(N2CCN(Cc3ccccc3F)CC2)CN1Cc1cn(Cc2ccc(Cl)cc2)nn1 (stereo not given)	u	u
COc1ccc(CCCNC(=O)C2Cc3c(-c4cccc(NC(C)=O)c4)ccnc3O2)cc1 (stereo not given)	35µM*	6%[18.4 µM]
Cc1ccc(F)c(S(=O)(=O)NC(=O)C2(C)CCN2C(=O)Cc2ccccc2)c1 (stereo not given)	0%	2%
CCCN1CCN(CCCNC(=O)CN2C(=O)COc3ccc(C(C)(C)C)cc32)CC1	-5%	-24%
COc1ccc(Cc2c(C(C)(C)C)nc3cc(C)c(Br)c(C)n23)c(C)c1	-22%	12%
COc1ccc(C(c2nnnn2-c2c(C)cccc2C)N2CCC(n3c(=O)[nH]c4ccccc43)CC2)cc1 (stereo not given)	u	9%
OCCc1ccc(NCCc2ccco2)cc1	32%[activator]	0%
O=C1NC[C@H](CCCCN2C[C@H](Cc3ccc(O)cc3)N(Cc3ccccc3)C(=O)C2=O)N(CCc2ccc(O)cc2)C1=O	0%	-9%
O=C(CN1C(=O)CCC1=O)Nc1nc2c(F)cc(F)cc2s1	-15%	14%
CNC(=O)C1CN(C(=O)c2nn(Cc3ccccc3)c(=O)c3ccccc23)c2ccccc2O1 (stereo not given)	-22%	-3%
CC1=C(C(=O)N(C(C)C)C(C)C)CC(CC(=O)NCCCCc2ccccc2)C(=O)N1Cc1ccccc1 (stereo not given)	0%	-15%
CCc1cccc(CC)c1C(OC(C)=O)c1cccnc1 (stereo not given)	-15%	-11%
CCOC1=C2[C@@H](CN(S(=O)(=O)c3ccccc3C)[C@H]2c2ccc(Cl)cc2)[C@H]2C(=O)N(c3ccccc3)C(=O)[C@H]2C1	-18%	-2%
Cc1ccc(F)cc1C(=O)N1CCCC(c2cc(C(=O)Nc3ccccc3)no2)C1 (stereo not given)	-22%	0%
OC[C@@H]1CN(Cc2ccc(Cl)cc2)C[C@H](n2cnc3c(N4CCCC4)ncnc32)O1	-1%	0%
Cc1ccc(S(=O)(=O)N2CC3(O)CN(C(=O)OC(C)C)N(C(=O)OC(C)C)CC3(OC(=O)NCc3ccccc3F)C2)cc1 (stereo not given)	-26%	-14%
Cc1ccc(OC2CCN(C(=O)[C@H]3O[C@@H](n4ccc(=O)[nH]c4=O)[C@H](O)[C@@H]3O)CC2)cc1	-14%	5%
CCCCNC(=O)C1(C)CCN1C(=O)c1cc(-c2cccs2)oc1C (stereo not given)	u	-4%
COCCNC(=O)C1CCCN(C(=O)c2ccc(OC)c(F)c2)CC1 (stereo not given)	-12%	-2%[18.4 µM]
COc1cc(C(=O)NC2CCN(C)CC2)ccc1Nc1ncc2c(n1)N(Cc1ccccc1)CCC(=O)N2C	30%[activator]	-14%
COC(=O)[C@@]12C[C@@H](CC(=O)N3CCN(C(=O)C4CC4)CC3)C(=O)N(Cc3ccc4c(c3)OCO4)C1=CCC(C)(C)C2	-7%	21%
COc1ccc(C(C)(O)c2nc(-c3ccc4c(c3)OCO4)cs2)cc1 (stereo not given)	-22%	u
Clc1ccccc1-c1cc2nc(NCCCn3ccnc3)ccn2n1	0%	-20%
C[C@H](CO)N1C[C@H](C)[C@@H](CN(C)C(=O)Cc2ccccc2)OCCCC[C@H](C)Oc2ccc(NC(=O)NC3CCCCC3)cc2C1=O	-21%	-4%
CC(C)NC(=O)CN1CCN(C(c2cc3ccccc3o2)c2nnnn2C(C)(C)C)CC1 (stereo not given)	-14%	0%
CC(=O)Nc1cc(-c2ccc(F)cc2)cn2c(-c3ccc(F)c(Cl)c3)cnc12	-13%	7%[18.4 µM]
OC(c1cccc(Cl)c1)c1nc(-c2cc3ccccc3o2)cs1 (stereo not given)	19%	u
CCC(=O)N1CCC(C)(C(=O)Nc2ccc3c(c2)OCCO3)C1 (stereo not given)	-20%	-7%[18.4 µM]
COc1ccccc1-c1cc2nc(NCCc3ccc(S(N)(=O)=O)cc3)ccn2n1	-23%	1%

Next structures
canonical_smiles	2A StopGo	RE007 growth inh
CC(=O)Nc1cccc(-c2ccnc3c2CC(C(=O)Nc2ccc(Cl)cc2)O3)c1 (stereo not given)	u	-6%
CNC(C)C#Cc1ccc2oc3cc(C)c(C)cc3c(=O)c2c1 (stereo not given)	26%	-24%
COCCN(C(=O)CSc1nnc(-c2cccc(Cl)c2)n1N)c1c(N)n(CC(C)C)c(=O)[nH]c1=O	-7%	13%
C[C@H](CO)N1C[C@H](C)[C@@H](CN(C)C(=O)Nc2ccccc2)Oc2ncc(-c3ccc(C#N)cc3)cc2C1=O	66%[activator]	6%
CC(OC(=O)c1ccc2c(c1)OCO2)C(=O)NC1CCCCC1 (stereo not given)	-24%	-9%
COCCNC(=O)C1(C)CCN(Cc2ccc3ccccc3c2Br)C1 (stereo not given)	-24%	-12%
COC(=O)CC1(C(=O)OC)Nc2cc(Cl)c(Cl)cc2S(=O)(=O)N1O (stereo not given)	11%	-7%
CC(C)Nc1nc(Nc2ccc(Cl)cc2F)c2sccc2n1	0%	u
S=C(Cc1ccc(-c2ccccc2)cc1)N1CCOCC1	-8%	-7%
OC[C@@H]1CN(Cc2ccc(F)cc2)C[C@H](n2cnc3c(N4CCOCC4)ncnc32)O1	-16%	9%
C[C@H](CO)N1C[C@H](C)[C@H](CN(C)S(=O)(=O)c2cccs2)Oc2ncc(-c3cc4ccccc4o3)cc2C1=O	-13%	-9%
O=C(Nc1cccc2c1CCCC2)c1cc(C2CCCCN2C(=O)OCCF)on1 (stereo not given)	-2%	7%
Cc1ccc(S(=O)(=O)N2[C@@H](Cc3ccccc3)CO[C@H]2CC(=O)OCc2ccccc2)cc1	-3%	0%
COc1ccc(N2CCN(C(=O)C(=O)c3cn(CC(=O)N4CCCC4)c4ccccc34)CC2)cc1	-12%	-6%
CN1[C@@H](Cc2ccccc2)COc2cc(N3CCSCC3)ccc2S1(=O)=O	u	4%
N#CCCN(Cc1ccccc1)C(C(=O)NC1CCCCC1)c1ccnc2ccccc12 (stereo not given)	-14%	-18%

A draw from above in order of count of non-hydrogen atoms, smallest number first:
canonical_smiles	2A StopGo	RE007 growth inh
CN1[C@@H](Cc2ccccc2)COc2cc(N3CCSCC3)ccc2S1(=O)=O	u	4%
O=C(Nc1cccc2c1CCCC2)c1cc(C2CCCCN2C(=O)OCCF)on1 (stereo not given)	-2%	7%
OC[C@@H]1CN(Cc2ccc(F)cc2)C[C@H](n2cnc3c(N4CCOCC4)ncnc32)O1	-16%	9%
N#CCCN(Cc1ccccc1)C(C(=O)NC1CCCCC1)c1ccnc2ccccc12 (stereo not given)	-14%	-18%
Cc1ccc(S(=O)(=O)N2[C@@H](Cc3ccccc3)CO[C@H]2CC(=O)OCc2ccccc2)cc1	-3%	0%
COc1ccc(N2CCN(C(=O)C(=O)c3cn(CC(=O)N4CCCC4)c4ccccc34)CC2)cc1	-12%	-6%

(more compounds)
canonical_smiles	2A StopGo	RE007 growth inh
COCCNc1nc(-c2cc(F)ccc2C)c2sc(-c3ccccc3)cc2n1	-26%	8%
C[C@@H]1CN([C@H](C)CO)C(=O)CCCn2cc(nn2)CO[C@H]1CN(C)C(=O)OCc1ccccc1	-15%	-7%
O=C(NCc1ccc(C(F)(F)F)cc1)c1ccc(-c2ccc(F)c(F)c2)c2ccoc12	-24%	-4%
CCOC(=O)C1=C(COC(=O)CNS(=O)(=O)c2c(F)cc(F)cc2Br)NC(=O)NC1C (stereo not given)	-6%	-3%
CC1(C(=O)NCc2ccccc2)CN(S(C)(=O)=O)CC(=O)N1CCc1c[nH]c2ccccc12 (stereo not given)	-3%	0%
CN(C)CCNC(=O)c1cccc2c(-c3ccc(F)c(F)c3)coc12	-19%	-19%
CN(C(=O)c1cccc(NC(=O)Cc2cccc(NC(=O)C3CCCN(C(=O)c4ccccc4)C3)c2)c1)C1CC1 (stereo not given)	-13%	-3%
Nc1ccn([C@@H]2O[C@H](CNS(=O)(=O)c3cc4ccccc4s3)[C@@H](O)[C@H]2O)c(=O)n1	0%	-18%
O=C(CC[C@H]1O[C@@H](n2ccc(=O)[nH]c2=O)[C@H](O)[C@@H]1O)NCC(c1ccccc1)c1ccccc1	0%	-18%
COc1ccc(C(C)=O)cc1Cn1c(C)c(C(=O)NCc2cccc(C)c2)sc1=O	-4%	1%[18.4 µM]
O=C(Nc1ccccc1)Nc1ncc(C(F)(F)F)cc1Cl	-9%	10%
Cc1ccc(S(=O)(=O)N2CCN(C(=O)COC(=O)COc3ccc(Br)cc3)CC2)c(C)c1	-21%	0%
O=C(CSc1nnc2ccccn12)Nc1ccccc1[N+](=O)[O-]	9%	4%
COc1ccc(F)cc1-c1cc(C(=O)Nc2ccc(C)c(NS(C)(=O)=O)c2)[nH]n1	35µM*	15%
O=C(NC(c1cccnc1)c1ccc2c(c1)OCO2)C1CCN(CCOc2ccc(Cl)cc2Cl)CC1 (stereo not given)	-4%	-10%
COc1cccc(CNC(=O)[C@@H]2CCCN2C(=O)[C@H]2CCCCN2C(=O)OC(C)(C)C)c1	-16%	1%
Cc1ccc(-c2nc3cc(C)c(Br)c(C)n3c2Cc2cccc(F)c2)cc1	35%[activator]	u
Cc1ccc(Cn2c(C3CCCN3c3nc(-c4ccc(F)cc4)cs3)nc3cc(C(=O)NCCCO)ccc32)cc1 (stereo not given)	-25%	-6%
COc1ccc(CNC(=O)[C@@H](Cc2ccccc2)NC(=O)CC[C@H]2O[C@@H](n3ccc(=O)[nH]c3=O)[C@H](O)[C@@H]2O)cc1	-11%	15%

Screening data: PubChem, National Center for Advancing Translational Sciences (NCATS)
